# Vif A3G = inhibitors of Vif binding to APOBEC3G peptide, primary screen, biochemical, TR-FRET, GST-Vif 1-94, biotin-A3G peptide, dose response retest (AID 1117319); Virion infectivity factor (Human immunodeficiency virus type 1 group M subtype B (isolate …; TR-FRET GST-Vif / biotin-A3G peptide binding; higher % means a stronger effect; test concentration not given here; strong numbers were not always called active; inhibition, %, or IC50 in µM where a hit was titrated; 0.57% of 260,000 active;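 active = above the screen mean plus three standard deviations and confirmed in dose response; inconclusive = results disagree or hit not tested in dose response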;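 also: Vif residues 1-94 fused to GST binding biotinylated APOBEC3G peptide 110-148; 0% = full assay without inhibitor and 100% = GST in place of GST-Vif; retest series ran down from 100 µM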
# Beta cell apopt = inhibitors of cytokine-induced beta cell apoptosis, primary screen, luminescence; INS-1E cytokine-induced death, ATP luminescence, 48 h; percent of positive-control rescue, neutral wells zero; protection from apoptosis, % (concentration not given with the values); 0.8% of 300,000 active; AID 435005, 2010;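 active = all replicates at 75% or more, or half of them and the mean; inconclusive = half reach 75% but not the mean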;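 also: 0% = cytokine-treated negative control wells and 100% = positive control rescue; higher means more ATP so stronger rescue from cytokine killing; wells of about 40 µL received 100 nL stock; the first replicate is given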
# A1 inh = caspase 3/7 activation in MEF A1-2A-BIM cells, primary screen, A1 inhibitor project, cell-based, luminescence, HTS | AID 2462, 2010 | Caspase-Glo 3/7 luminescence, 3 h; percent of clofoctol response, vehicle zero | 0.066% of 330,000 active | caspase activation, % (no concentration beside the values);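 active = over half of replicate activation scores above 10%, or exactly half above 10 with the replicate mean above 10; inconclusive = replicate mean below 10 yet half the replicates above 10; inactive = over half of replicates below 10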;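 also: wells of about 30 µL received 50 nL stock; many hits fall short of the cut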
# RanGTP-Imp inh = inhibitors of RanGTP-importin-beta interaction, primary screen, biochemical, FRET, CFP-Ran, YFP-importin-beta, homogeneous | 1.1% of 300,000 active | Ran GTPase (GTP-bound) - importin-beta complex | AID 2216, 2009 | cell-free CFP-Ran/YFP-importin-beta FRET ratio | inhibition, % (concentration not given with the values);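 active = most replicates above 15%; inconclusive = exactly half above 15%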;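 also: 0% = DMSO wells and 100% = Ran loaded with GDP instead of GTP; wells of about 40 µL received 100 nL stock; the first replicate is given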
# T cruzi inh = inhibitors of intracellular T. cruzi growth, primary screen, luminescence, NIH3T3 host cells | T. cruzi beta-gal in NIH3T3, 90 h | inhibition, % (no concentration beside the values) | 1.4% of 300,000 active;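 active = mean inhibition across valid replicates above about 55%, limit read from the data; inconclusive = mean below that limit but half or more replicates reach it; inactive = mean below it, under half of replicates reach it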;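 also: signal also drops with host cell toxicity which is not excluded here; 0% = plate median of DMSO wells and 100% = zero luminescence signal; higher percent means less beta-gal luminescence so fewer parasites; stock transfer was 50 nL into about 50 µL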
# Calb FLC = C. albicans growth inhibition with fluconazole, primary screen, CaCi-2 strain, Alamar Blue fluorescence | C. albicans CaCi-2 (fluconazole-resistant clinical isolate) + fluconazole, 48 h | growth inhibition, % (no concentration beside the values) | 0.57% of 300,000 active;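 active = most replicates above 75%; inconclusive = exactly half above 75%; inactive = most below 75%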;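 also: all wells also contain fluconazole at 8 µg/ml as a sub-toxic cotreatment; 0% = median of DMSO wells and 100% = median of geldanamycin control wells; wells of about 8 µL received 7.5 nL stock; the first replicate is given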
# LANA-H2B inh = blockers of LANA interaction with H2A/H2B – biochemical, FP readout, HTS, primary screen | Protein LANA1 (Human herpesvirus 8 type P (isolate GK18)), Q9QR71 | cell-free LANA-H2A/H2B peptide, fluorescence polarization | inhibition, % (test concentration not listed) | 0.6% of 320,000 active; in the data active = inhibition mostly above about 10%, no sharp cut-off; inactive = mostly below about 6.7%;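 also: stock transfer was 7.5 nL into about 10 µL; 0% = median of vehicle wells and 100% = median of positive control wells; one replicate is shown; the record names a cut of 25% in any replicate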
# Target sequence (Q9QR71 whole entry, looked up): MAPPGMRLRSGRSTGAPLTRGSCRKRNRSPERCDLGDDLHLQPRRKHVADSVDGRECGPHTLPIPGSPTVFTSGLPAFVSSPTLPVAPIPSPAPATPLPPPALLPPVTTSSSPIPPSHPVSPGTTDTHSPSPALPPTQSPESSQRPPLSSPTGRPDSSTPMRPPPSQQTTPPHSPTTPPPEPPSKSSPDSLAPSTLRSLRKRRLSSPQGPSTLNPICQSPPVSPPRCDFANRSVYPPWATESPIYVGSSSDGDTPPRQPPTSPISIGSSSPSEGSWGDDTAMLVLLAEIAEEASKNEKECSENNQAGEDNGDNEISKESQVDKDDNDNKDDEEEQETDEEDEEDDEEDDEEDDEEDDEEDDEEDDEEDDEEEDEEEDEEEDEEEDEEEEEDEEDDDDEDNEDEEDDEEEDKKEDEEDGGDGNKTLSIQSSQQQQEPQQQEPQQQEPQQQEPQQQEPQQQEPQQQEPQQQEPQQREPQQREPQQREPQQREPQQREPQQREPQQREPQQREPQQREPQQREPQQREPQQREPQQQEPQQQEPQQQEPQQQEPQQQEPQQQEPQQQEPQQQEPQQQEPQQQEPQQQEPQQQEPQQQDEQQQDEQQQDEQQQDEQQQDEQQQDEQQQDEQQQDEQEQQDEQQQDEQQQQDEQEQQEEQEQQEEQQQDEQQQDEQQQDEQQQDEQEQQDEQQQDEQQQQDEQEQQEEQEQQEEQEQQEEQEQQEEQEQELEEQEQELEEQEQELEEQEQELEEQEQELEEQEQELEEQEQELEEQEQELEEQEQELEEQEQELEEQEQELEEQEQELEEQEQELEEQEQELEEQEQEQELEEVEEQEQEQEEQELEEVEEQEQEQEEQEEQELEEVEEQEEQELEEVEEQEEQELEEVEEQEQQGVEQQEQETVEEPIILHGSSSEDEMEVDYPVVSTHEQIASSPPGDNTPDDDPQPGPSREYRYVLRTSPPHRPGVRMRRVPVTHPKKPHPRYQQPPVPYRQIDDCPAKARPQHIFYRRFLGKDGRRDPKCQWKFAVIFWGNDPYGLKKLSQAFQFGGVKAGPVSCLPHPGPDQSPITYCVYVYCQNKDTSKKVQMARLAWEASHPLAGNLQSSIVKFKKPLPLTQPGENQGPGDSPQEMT
# MLL AF4-AF9 inh = inhibitors of AF4 peptide binding to AF9, primary screen, biochemical, AlphaScreen, biotin-AF4 peptide, FLAG-AF9, single point; Protein AF-9 (Homo sapiens), P42568; inhibition, % at 10 µM; 0.47% of 350,000 active; AID 651704, 2012;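 active = every replicate reaching a set inhibition limit, whatever the replicate mean, cut at about 25% in these data; inconclusive = mean inhibition reaches that limit but some replicates miss it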;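 also: 0% = plate neutral control median and 100% = total signal loss; the record names both 10 and 1 µM as test concentration; the first replicate is given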
# Starred values were filed as active, the others as inactive; ? = inconclusive; · = not tested or not shown; & = joins results of further samples.
SMILES,Vif A3G,Beta cell apopt,A1 inh,RanGTP-Imp inh,T cruzi inh,Calb FLC,LANA-H2B inh,MLL AF4-AF9 inh
COC(=O)CN1C(=O)C(C)(C)Oc2ccc(C(=O)Nc3cccc(OC)c3)cc21,·,6,0.9,-1.0,9,-1,6.1,1.0
Cc1ccc(CN2CCc3c(OCC(=O)Nc4cc(C)ccc4C)cccc3C2=O)cc1,?,·,-0.4,2.8,26,20,3.5,·
CCOCCCNC(=O)C1CCC(CNS(=O)(=O)c2cccc3nsnc23)CC1 (stereo not given),18%,1,0.4,·,·,·,6.0,·
COc1ccccc1C1CC(=O)Nc2cc(C)c(C)cc21 (stereo not given),·,6,0.4,-2.1,19,14,6.0,-2.4
COc1ccccc1C(=O)NC(=O)COC(=O)Cc1n[nH]c(=O)c2ccccc12,-1%,-3,0.0,1.3,1,12,·,-1.3
CC(=O)Nc1ccc(S(=O)(=O)Nc2cccc(-c3ccc4nncn4n3)c2)cc1,-4%,1,-0.5,-3.3,-4,2,0.1,-0.7
COc1ccc(C(=O)Nc2nc3ccccc3s2)cc1OC,6%,2,0.7,7.8,-4,19,2.1,3.0
Cc1cccc(N2CCN(C(=O)c3csc4ccccc34)CC2C)c1 (stereo not given),-3%,-3,0.9,3.7,13,16,-2.6,·
O=C(CNCc1ccco1)Nc1cc(S(=O)(=O)N2CCOCC2)ccc1N1CCOCC1,-12%,-5,-0.4,·,·,·,-0.1,1.7
COc1ccc(OCc2cc(C(=O)N(C)C3CCOCC3)no2)c2ccccc12,·,-3,-1.9,-0.5,2,1,0.0,7.1
COc1ccc(-c2cc(C(F)(F)F)nc(S(=O)(=O)CCCC(=O)Nc3cccc(O)c3)n2)cc1OC,2%,·,·,-3.0,-41,25,·,-1.3
CN(C)CCSc1nc(-c2ccccc2)nc2c1CCCC2,-2%,7,0.9,-1.3,37,-25,-2.0,5.1
COc1ccc2[nH]c(C(=O)N/N=C/c3ccc(OC)c(O)c3)cc2c1,-9%,38,1.2,1.1,-4,-4,-5.2,0.0
CC/C(O)=C(/C#N)c1nnc2n1CCCCC2,18%,·,0.2,7.1,-3,6,-0.5,·
Cc1ccc(OCCC(=O)Nc2ccc3c(c2)OCCCO3)cc1,·,-4,0.2,·,·,·,1.3,-4.2
CCOC(=O)C1=NNC2(c3ccccc3)C(=O)N(c3cccc(Br)c3)C(=O)C12 (stereo not given),1%,-5,0.1,3.1,-16,?,4.0,-45
CC(C)(C)NC(=O)CCN(/N=C/c1ccccc1O)C1=NS(=O)(=O)c2ccccc21,-17%,-2,0.1,0.0,-6,-9,-0.6,8.6
NS(=O)(=O)c1ccc(NC(=O)c2cc(=O)c3ccccc3o2)cc1,·,-1,0.5,3.5,-12,-5,7.1,0.4
CC(C)C1C(=O)NC(=S)N1S(=O)(=O)c1ccc(C(C)(C)C)cc1 (stereo not given),-2%,8,0.0,0.5,-7,17,0.3,·
CC(C)(C)NS(=O)(=O)c1ccc(NC(=S)NC(=O)C2CCC2)cc1,7%,·,0.1,1.8,6,21,-1.6,-0.1
CCC(O)c1cc2c(cc1NC(=O)c1cccs1)OCCO2 (stereo not given),5%,-2,-0.7,0.4,-2,1,1.7,·
COc1ccc2cc(C)c3nnc(SCc4cccnc4)n3c2c1,2%,4,-0.2,-0.2,12,-4,-1.7,-19
COc1ccc(OC)c(NC=C2C(=O)OC3(CCCCC3)OC2=O)c1,-3%,0,0.5,2.9,-2,6,-8.7,·
CCOC(=O)C1(Cc2ccccc2C)CCCN(C(=O)CCC(=O)OC)C1 (stereo not given),·,0,-0.3,-4.1,-8,-1,0.8,-1.2
O=C(/C=C/c1ccc(Cl)cc1Cl)NCCSc1ccccc1,·,11,-0.3,0.6,11,-1,-2.9,·
COc1ccc(NS(=O)(=O)c2cn(C)nc2C)cc1,1%,·,-0.2,0.0,8,5,-2.5,-0.5
COc1ccccc1N1CCN(C(=O)c2cc(-c3ccc(Cl)cc3)on2)CC1,2%,-7,0.5,-1.8,-9,4,-0.5,·
CCCC1=Nc2cc(C(=O)NCc3ccco3)ccc2Sc2ccccc21,0%,-3,0.3,1.8,-19,7,·,·
COCCCNC(=S)Nc1cccc(S(=O)(=O)NC2=NCCC2)c1,2%,-3,0.2,2.2,-14,0,2.1,-0.7
COc1ccc(NC(=O)c2cc3c(=O)n(C)c4ccccc4c3n2C)cc1OC,-6%,7,0.7,-5.0,21,2,2.7,4.5
CC(NC(=O)c1ccccc1NC(=O)c1ccccc1)C(=O)N1CCOCC1 (stereo not given),5%,-3,-0.3,?,-23,6,-3.2,-2.5
OCC1(CCOc2ccccc2)CCN(Cc2nc3ccc(F)cc3[nH]2)CC1,14%,-3,0.6,7.1,-11,-24,4.4,-1.5
CC(C)OC(=O)CSc1nc(-c2ccc(F)cc2)nc2ccc(F)cc12,-3%,-6,0.0,-0.8,-18,-3,1.0,·
Clc1ccc2nc(N3CCN(c4ccccc4)CC3)sc2c1,·,-1,-1.9,-0.5,2,-1,2.4,·
COc1ccccc1C1/C(=C(/O)c2ccccc2)C(=O)C(=O)N1CCO (stereo not given),4%,3,0.4,2.8,-1,-2,3.0,·
O=C(Nc1ccc(Br)cc1Cl)c1cnccn1,25%,-5,0.6,3.6,-8,-1,3.1,6.4
COc1cc(C2C3=C(CC(C)(C)CC3=O)N(C)C(=O)N2C)cc(OC)c1OC (stereo not given),2%,-3,1.3,5.6,-14,12,-1.5,·
CCCCN1C(=O)N(c2ccc(Cl)cc2)C(C)(O)CC1(C)C (stereo not given),-10%,0,0.4,?,2,-9,2.9,-0.5
O=C(CC1SC(=Nc2ccccc2)N(Cc2ccccn2)C1=O)Nc1cccc(Cl)c1 (stereo not given),25%,-9,-0.1,?,33,-18,-5.1,2.1
CCN(CC)CCNC(=O)c1ccc2c(=O)n(CCc3ccccc3)c(=O)[nH]c2c1,-3%,·,0.7,-3.6,3,8,0.3,·
COC(=O)c1ccc(Cn2cc(/C=C\[N+](=O)[O-])c3ccccc32)o1,·,·,0.4,3.4,5,9,-2.2,2.9
O=C(CCc1c[nH]c2ccccc12)NCc1ccncc1,·,-1,0.0,1.1,-5,3,-1.5,-0.5
COc1ccc(CCn2ccc(O)c(Cc3ccc(Cl)cc3)c2=O)cc1OC,·,-4,-0.9,5.6,6,-4,1.9,-0.4
CSc1ccccc1NC(=O)CN(C)CC(=O)Nc1ccc(N2CCOCC2)cc1,6%,-6,-0.4,0.5,-8,5,2.3,2.1
CN1CCN(C(=O)c2ccccc2N(Cc2ccccc2)S(C)(=O)=O)CC1,4%&2%,1,-0.5,-1.1,-3,-3,-0.7,·
C=CCOc1c(Br)cc(CNn2nnnc2N)cc1OCC,67%,·,0.7,-3.7,-2,-14,-1.7,·
Cc1cc2ncc(S(C)(=O)=O)c(N)n2n1,-9%,-1,-0.3,-1.3,-4,-1,-2.5,-1.6
Cc1cc(C)c(S(=O)(=O)N2CCN=C2c2ccccc2)c(C)c1,-1%,-1,-0.1,-0.8,6,17,-2.3,·
Fc1ccc(N2CCN(c3ccc4c(C(F)(F)F)cc(C(F)(F)F)nc4n3)CC2)cc1,-4%,10,-0.9,0.2,31,18,-3.3,·
CCCNC(=O)c1onc(CS(=O)(=O)c2cccc(OC)c2)c1C(=O)NCCC,·,1,0.0,?,13,8,-4.1,?
COCCn1c(SCC(=O)Nc2ccc3c(c2)OCCO3)nc2c(c1=O)SC(C)C2 (stereo not given),7%,5,0.5,·,·,·,-0.5,6.6
CC(O)CCC(=O)NNC1CC(=O)N(c2ccccc2)C1=O (stereo not given),-12%,-12,0.5,1.0,-21,-17,-4.9,-0.2
O=C(COCc1cc(-c2cccs2)on1)NC1CCCCC1,·,1,-2.4,1.0,1,-8,-3.8,1.5
Cc1ccc(N2CC(C(=O)N3CCC4(CC3)CC(=O)c3ccccc3O4)CC2=O)cc1 (stereo not given),1%,·,0.3,-1.9,0,-1,4.9,-2.8
COC(=O)C(Cc1ccc(O)cc1)NC(=O)C(C)NC(=O)c1ccc(C(C)(C)C)cc1 (stereo not given),1%,-2,0.8,-0.6,-11,3,-3.2,1.4
COc1cccc(CNC(=O)COC(=O)c2cc([N+](=O)[O-])ccc2N2CCCC2)c1,-7%,-1,-1.5,·,·,·,-0.2,3.0
Cc1ccc(C)c(NC(=O)CN(C)C(=O)CSC(C)C(=O)Nc2cc(C)on2)c1 (stereo not given),·,0,?,1.7,-3,-3,-5.0,-1.5
CSc1ccc(CN(C)C(=O)c2cc(=O)[nH]c3ccccc23)cc1,5%,1,0.6,-1.0,6,-1,0.7,3.2
NC(=S)N/N=C/c1ccc(-c2cccc([N+](=O)[O-])c2)o1,>100µM*,7,0.7,-1.8,32,-8,10,·
CCC(CC)C(=O)N(CCc1ccc(OC)cc1)Cc1nc2ccccc2c(=O)[nH]1,-2%,2,0.6,1.0,-8,13,1.1,6.9

# The list continues.
SMILES,Vif A3G,Beta cell apopt,A1 inh,RanGTP-Imp inh,T cruzi inh,Calb FLC,LANA-H2B inh,MLL AF4-AF9 inh
O=C1Nc2c(c(=O)[nH]c(=O)n2-c2ccccc2)C(C(F)(F)F)(C(F)(F)F)N1,18%,-4,0.6,-3.3,-8,-7,1.4,·
CCOc1ccccc1NC(=O)CSc1nnc(CCC(=O)Nc2ccccc2F)n1C,-4%,1,1.9,4.4,8,-2,1.0,-0.4
Cc1ccc(CN2CCC(Oc3cccc(C(=O)N(C)CCN(C)C)c3)CC2)cc1C,·,0,0.2,9.1,57*,1,-4.0,5.9
Cc1cc(C)n(C(C[N+](=O)[O-])c2ccc(Cl)cc2)n1 (stereo not given),1%,6,0.7,?,-9,-1,-6.8,·
CCn1c2ccccc2c2cc(CNCCCN3CCOCC3)ccc21,·,3,0.2,-3.8,61*,-2,-1.3,2.6
COc1cc(C(=O)Nc2cc(C)c(OCC(=O)N3CCOCC3)c(C)c2)cc(OC)c1OC,3%,0,-0.2,-1.7,-6,-7,6.9,·
CC1CCCCC1NC(=O)COC(=O)c1cc(=O)[nH]c2ccccc12 (stereo not given),·,-2,-0.9,·,·,·,-5.1,-1.4
Cc1ccc(S(=O)(=O)N2CCCC(C(=O)NC3CC3)C2)cc1 (stereo not given),·,1,0.1,1.1,-9,-2,-6.7,-0.3
Cc1c(NC(=S)N/N=C/c2cccc(O)c2)c(=O)n(-c2ccccc2)n1C,-2%,4,0.5,-2.7,-11,1,0.1,·
